High-throughput results from PubChem BioAssay.
PrP 5UTR inh: inhibition of PrP 5' UTR reporter expression; AID 488862; cell-based PrP 5' UTR mRNA reporter, plate reader; inhibition, % (concentration not given with the values); 340,000 compounds, 0.35% hits;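 active means every replicate at 50% or more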;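 further: 0 = median of the neutral control wells; tested in H4 reporter cells; numbers are from one replicate; inactives centre near -14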
BJeLR lethal: kills HRASV12-expressing BJeLR cells. BJeLR (HRASV12) viability, CellTiter-Glo ATP luminescence, 48 h; reference of the scale not given here. inhibition, % (concentration not given with the values). 300,000 compounds, 0.17% hits. AID 1554;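 active means replicate mean above 50%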;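 further: 50 nL library stock added to about 25 µL; numbers are from one replicate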
Mtb hypoxia rep: Mtb hypoxia fluorescent reporter inhibition; fluorescence inhibition, % (no concentration beside the values); 300,000 compounds, 0.1% hits; M. tuberculosis hypoxia-regulated fluorescent reporter, fluorescence;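 active means 35 to 45% if threefold the growth effect, above 45% if 1.5-fold the growth effect; inactive means the rest, general growth blockers included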;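 further: wells of about 50 µL received 100 nL stock; 0% = vehicle wells and 100% = reference inhibitor wells; whole bacteria with a GFP reporter of the hypoxia response; strong numbers were not always called active; many hits fall short of the cut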
RN4220 kill: kills Staphylococcus aureus RN4220. S. aureus RN4220 growth, OD600, 16 h. inhibition, % (test concentration not listed). 330,000 compounds, 0.33% hits;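 active means z-score of -3 or lower and OD600 up to 0.18 on both plates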;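 further: plate controls were untreated cells for no effect and reference antibiotic for full effect; stock transfer was 100 nL into about 80 µL; one replicate is shown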
Sa ugtP lethal: compounds lethal to S. aureus RN4220 ugtP deletion mutant; OD600 growth, 16 h; some inactives read as strong as hits; growth inhibition, % (test concentration not listed); 330,000 compounds, 0.54% hits;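 active means z-score under -3 and OD600 up to 0.15 on both plates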;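 further: plate controls were untreated wells for no effect and antibiotic for full effect; wells of about 80 µL received 100 nL stock; the first replicate is given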
Autofluor counter: counter-screen for toxin protease inhibitors: compound fluorescence | compound autofluorescence counterscreen, microsphere flow cytometry; hits give high values | fluorescence intensity (test concentration not listed) | 360,000 compounds, 3.1% hits;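 active means at least 3 SD above the mean of all compounds, about 16000 in these data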;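 further: 100 nL of 1 mM stock went into each well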
Mtb hypoxia rep growth: further read-out of Mtb hypoxia rep, marked with its call; growth inhibition, %; measured here: M. tuberculosis growth (absorbance);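 0% = vehicle and 100% = reference antibiotic; read after six days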
Numbers without * were called inactive; & = joins results of further samples.

Screening CCN=C(NCC)SC1CC(=O)N(c2ccc(OCC)cc2)C1=O (centres undefined) returned PrP 5UTR inh -13, BJeLR lethal -11, RN4220 kill -0.1, Sa ugtP lethal 14 and Autofluor counter 4381.
`CC1(C)CC(=NNC(=S)Nc2ccccc2F)c2cc(O)ccc2O1` gave Mtb hypoxia rep 8, RN4220 kill 8.7, Sa ugtP lethal 14 and Mtb hypoxia rep growth 5.
CCOc1ccc(N2CC(C(=O)N3CCc4ccccc43)CC2=O)cc1 (centres undefined) was read as PrP 5UTR inh -11, BJeLR lethal -2, Mtb hypoxia rep 10, RN4220 kill -1.2, Sa ugtP lethal 1, Autofluor counter 3159 and Mtb hypoxia rep growth -4.
`CCN(CC)CCNC(=O)Cn1c(-c2ccccn2)nc2ccccc21` gave BJeLR lethal 5, Mtb hypoxia rep 14, RN4220 kill 7.3, Sa ugtP lethal 2, Autofluor counter 11820 and Mtb hypoxia rep growth 0.
COc1ccc(C)cc1NC(=O)COC(=O)Cc1ccc(-c2ccccc2)cc1 was read as PrP 5UTR inh -1, BJeLR lethal -22, Mtb hypoxia rep -12, RN4220 kill 4.1, Sa ugtP lethal -1, Autofluor counter 2370 and Mtb hypoxia rep growth -9.
For O=C1COc2cc(ccc2[N+](=O)[O-])Oc2ccc(cc2Cl)C(=O)CCCCO1 the results were PrP 5UTR inh -22, BJeLR lethal -2, Mtb hypoxia rep 11, RN4220 kill 4.9, Sa ugtP lethal -4, Autofluor counter 2742 and Mtb hypoxia rep growth 6.
Screening CCOc1ccc(CCNC(=O)COC(=O)c2c(C)nn(-c3ccccc3)c2C)cc1OCC returned PrP 5UTR inh -1, BJeLR lethal 5, Mtb hypoxia rep 4, RN4220 kill 0.1, Sa ugtP lethal -2, Autofluor counter 5762 and Mtb hypoxia rep growth 7.
For CCN1CCN(c2cc(C)c3cc(NC(=O)CCC(=O)N4CCN(c5ccccc5OC)CC4)ccc3n2)CC1 the results were PrP 5UTR inh -28, BJeLR lethal -10, Mtb hypoxia rep -4, RN4220 kill 2.3, Sa ugtP lethal 5, Autofluor counter 5993 and Mtb hypoxia rep growth 2.
Screening CCCC(=O)N=C1SC2CS(=O)(=O)CC2N1c1ccc(C(C)=O)cc1 (centres undefined) returned PrP 5UTR inh 7, BJeLR lethal 1, RN4220 kill 1.1, Sa ugtP lethal -5 and Autofluor counter 2112.
CC(C)CC(NC(=O)c1nc[nH]c1C(=O)N1CCN(c2ccccc2)CC1)C(=O)OC(C)(C)C (centres undefined) was read as Mtb hypoxia rep 15, RN4220 kill 4.2, Sa ugtP lethal -4 and Mtb hypoxia rep growth 3.
Screening COc1c(C(CC(C)C)OC(C)=O)ccc2c1C(=O)OCc1cc(C)cc(O)c1O2 (centres undefined) returned PrP 5UTR inh -7, BJeLR lethal 14, RN4220 kill 9.0, Sa ugtP lethal -3 and Autofluor counter 4628.
For NS(=O)(=O)c1ccc(-c2ccc(/C=N/Nc3ccc(C(=O)O)cc3)o2)cc1 the results were PrP 5UTR inh -15, BJeLR lethal 12 and Autofluor counter 3681.
CCOc1cc(NC(=S)Nc2ccccc2OC)c(OCC)cc1NC(=O)c1ccccc1C was read as PrP 5UTR inh -4, BJeLR lethal 9, Mtb hypoxia rep -3, RN4220 kill 5.3, Sa ugtP lethal 13, Autofluor counter 16184* and Mtb hypoxia rep growth -2.
For COc1nc(-c2ccccc2)cc(-c2ccccc2)n1 the results were PrP 5UTR inh 0, BJeLR lethal -2, RN4220 kill 4.7, Sa ugtP lethal 10 and Autofluor counter 4882.
Screening O=C(CN1C(=O)NC2(CCCC2)C1=O)OCc1ccc(Cl)c(Cl)c1 returned PrP 5UTR inh -15, BJeLR lethal 1, Mtb hypoxia rep -1, RN4220 kill 2.6, Sa ugtP lethal -7 and Mtb hypoxia rep growth 0.
For Cc1ccc(NC(=O)C(C)c2cccc(C(=O)c3ccccc3)c2)cc1 (centres undefined) the results were PrP 5UTR inh -61, BJeLR lethal 0, Mtb hypoxia rep -2, RN4220 kill -1.7, Sa ugtP lethal 1, Autofluor counter 12558 and Mtb hypoxia rep growth 5.
CCCCNS(=O)(=O)CCNCCc1ccccc1 was read as PrP 5UTR inh -32, Mtb hypoxia rep 0, RN4220 kill 2.1, Sa ugtP lethal 3, Autofluor counter 4546 and Mtb hypoxia rep growth 3.
COC(=O)c1cc(=O)nc2sc3cc(OC)ccc3n12 was read as PrP 5UTR inh -18, BJeLR lethal -10, Mtb hypoxia rep -2, RN4220 kill -4.7, Sa ugtP lethal 0, Autofluor counter 4543 and Mtb hypoxia rep growth 7.
`COc1ccc(OC)c(C(=O)CSc2nnc(-c3ccc(OC)c(OC)c3)o2)c1` gave Mtb hypoxia rep 3, RN4220 kill 3.4, Sa ugtP lethal 7 and Mtb hypoxia rep growth 5.
Screening O=C(CCNC(=O)c1ccc(Br)cc1)NNC(=O)c1ccccc1 returned PrP 5UTR inh -12, Mtb hypoxia rep -4, RN4220 kill -0.4, Sa ugtP lethal 2, Autofluor counter 3644 and Mtb hypoxia rep growth -3.
For CC(C)C(NC(=O)c1ccccc1F)C(=O)NCc1ccc(F)cc1 (centres undefined) the results were PrP 5UTR inh -23, BJeLR lethal 9, Mtb hypoxia rep 3, RN4220 kill 2.4, Sa ugtP lethal 7, Autofluor counter 3543 and Mtb hypoxia rep growth 7.
For Cc1c(NC(=S)NC(=O)c2ccc(Br)o2)c(=O)n(-c2ccccc2)n1C the results were PrP 5UTR inh -12, BJeLR lethal 9, Mtb hypoxia rep -6, RN4220 kill 1.3, Sa ugtP lethal 6, Autofluor counter 1984 and Mtb hypoxia rep growth -3.
`CC1(C)CC(/C=C/c2ccccc2)=Nc2ccccc2N1` gave PrP 5UTR inh -57, BJeLR lethal 0, Mtb hypoxia rep -8, RN4220 kill -0.2, Sa ugtP lethal 5, Autofluor counter 4993 and Mtb hypoxia rep growth -1.
For COC(=O)C(CC(C)C)NC(=O)/C=C/c1ccccc1Cl (centres undefined) the results were PrP 5UTR inh -1, BJeLR lethal -3, Mtb hypoxia rep 15, RN4220 kill 2.1, Sa ugtP lethal 0, Autofluor counter 2051 and Mtb hypoxia rep growth 5.
`O=C(c1ccc(N2CCN(C(=O)c3ccccc3)CC2)cc1)c1cccc(F)c1` gave PrP 5UTR inh -23, BJeLR lethal -1, Mtb hypoxia rep 7, RN4220 kill 1.0, Sa ugtP lethal 14, Autofluor counter 3806 and Mtb hypoxia rep growth -4.
For COCCCNC(=O)c1ccccc1C(F)(F)F the results were PrP 5UTR inh -21, BJeLR lethal -4, Mtb hypoxia rep 12, RN4220 kill 4.5, Sa ugtP lethal -1, Autofluor counter 4527 and Mtb hypoxia rep growth 7.
`O=C(C[n+]1ccc(C(=O)NN=Cc2ccc(OCc3ccccc3)cc2)cc1)c1ccccc1` gave Mtb hypoxia rep 7, RN4220 kill 8.8, Sa ugtP lethal 7 and Mtb hypoxia rep growth 1.
`CC(C)(C)C(=O)/C=C/Nc1ccccc1O` gave PrP 5UTR inh 11, BJeLR lethal 2, RN4220 kill 3.6, Sa ugtP lethal -16 and Autofluor counter 10705.
c1ccc(CCc2nn3c(Cc4ccccc4)nnc3s2)cc1 was read as PrP 5UTR inh -1, BJeLR lethal -25, Mtb hypoxia rep -7, RN4220 kill 3.9, Sa ugtP lethal 5, Autofluor counter 7613 and Mtb hypoxia rep growth -9.
Screening CSCCC(NS(=O)(=O)c1ccccc1F)C(=O)N1CC=C(c2ccccc2)CC1 (centres undefined) returned PrP 5UTR inh -16, BJeLR lethal 8, Mtb hypoxia rep -1, RN4220 kill 3.0, Sa ugtP lethal 1, Autofluor counter 5360 and Mtb hypoxia rep growth -7.
Screening O=C(c1ccccc1C(F)(F)F)N1CCN(S(=O)(=O)c2ccccc2)CC1 returned PrP 5UTR inh -31, BJeLR lethal 1, Mtb hypoxia rep 7, RN4220 kill 1.1, Sa ugtP lethal -2, Autofluor counter 19835* and Mtb hypoxia rep growth 13.
`CCCOC(=O)CSc1nnc(-c2ccccc2Cl)o1` gave PrP 5UTR inh -11, BJeLR lethal 0, Mtb hypoxia rep 9, RN4220 kill 1.6, Sa ugtP lethal 1, Autofluor counter 2525 and Mtb hypoxia rep growth 13.
For CN(C)CCCN1c2ccc([N+](=O)[O-])cc2CCc2cc([N+](=O)[O-])ccc21 the results were PrP 5UTR inh 7, BJeLR lethal -3, Mtb hypoxia rep 3, RN4220 kill -3.4, Sa ugtP lethal -1, Autofluor counter 4131 and Mtb hypoxia rep growth 15.
CN(c1ccccc1)S(=O)(=O)c1ccc(Cl)c(C(=O)NCC(c2ccco2)N2CCCC2)c1 (centres undefined) was read as PrP 5UTR inh -11, Mtb hypoxia rep -2, RN4220 kill 2.0, Sa ugtP lethal 5, Autofluor counter 3559 and Mtb hypoxia rep growth 9.
`CCOc1[nH]n(-c2ccc(Cl)cc2)c(=O)c1C=NCC(=O)OC` gave PrP 5UTR inh -14, BJeLR lethal -9, Mtb hypoxia rep -12, RN4220 kill 0.8, Sa ugtP lethal 5, Autofluor counter 2569 and Mtb hypoxia rep growth -27.
For Cc1ccccc1NC(=O)Cn1c([N+](=O)[O-])cnc1C the results were PrP 5UTR inh -2, BJeLR lethal 3, Mtb hypoxia rep -7, RN4220 kill -1.3, Sa ugtP lethal 1, Autofluor counter 9323 and Mtb hypoxia rep growth -10.
CN1/C(=C\C(=O)Nc2ccc(Br)cc2)C(C)(C)c2ccccc21 was read as PrP 5UTR inh -5, BJeLR lethal 5, Mtb hypoxia rep -2, RN4220 kill 94*, Sa ugtP lethal 96*, Autofluor counter 2049 and Mtb hypoxia rep growth -6.
O=C(NCCc1c[nH]c2ccccc12)C(=O)NCC1CCCO1 (centres undefined) was read as PrP 5UTR inh -18, BJeLR lethal -2, Mtb hypoxia rep 0, RN4220 kill 7.1, Sa ugtP lethal 12, Autofluor counter 4566 and Mtb hypoxia rep growth 9.
Screening CC(C)c1ccc(OCC(O)CN2CCN(c3ccccc3)CC2)cc1 (centres undefined) returned PrP 5UTR inh -8&1, BJeLR lethal 0, Mtb hypoxia rep 2&1, RN4220 kill 5.6&4.1, Sa ugtP lethal 12&10, Autofluor counter 3659&4328 and Mtb hypoxia rep growth 7&4.
`COc1ccccc1N(CC(=O)NN=Cc1ccc(SC)cc1)S(C)(=O)=O` gave Mtb hypoxia rep 0, RN4220 kill 4.9, Sa ugtP lethal -1 and Mtb hypoxia rep growth 7.

Molecules above with an NH in an aromatic ring (3):
CC(C)CC(NC(=O)c1nc[nH]c1C(=O)N1CCN(c2ccccc2)CC1)C(=O)OC(C)(C)C (centres undefined) was read as Mtb hypoxia rep 15, RN4220 kill 4.2, Sa ugtP lethal -4 and Mtb hypoxia rep growth 3.
`CCOc1[nH]n(-c2ccc(Cl)cc2)c(=O)c1C=NCC(=O)OC` gave PrP 5UTR inh -14, BJeLR lethal -9, Mtb hypoxia rep -12, RN4220 kill 0.8, Sa ugtP lethal 5, Autofluor counter 2569 and Mtb hypoxia rep growth -27.
O=C(NCCc1c[nH]c2ccccc12)C(=O)NCC1CCCO1 (centres undefined) was read as PrP 5UTR inh -18, BJeLR lethal -2, Mtb hypoxia rep 0, RN4220 kill 7.1, Sa ugtP lethal 12, Autofluor counter 4566 and Mtb hypoxia rep growth 9.

(next part)
Screening Nc1c(-c2cccc(Cl)c2)cnc2c(-c3ccccc3)cnn12 returned BJeLR lethal -1, Mtb hypoxia rep 0, RN4220 kill -0.7, Sa ugtP lethal -7, Autofluor counter 3868 and Mtb hypoxia rep growth -4.
For O=c1c2ccccc2nnn1CSc1nnc(C2COc3ccccc3O2)n1-c1ccccc1 (centres undefined) the results were PrP 5UTR inh 0, BJeLR lethal -13, Mtb hypoxia rep 1, RN4220 kill 4.4, Sa ugtP lethal -7, Autofluor counter 3904 and Mtb hypoxia rep growth 3.
`O=C(NC1CCCCCC1)c1cccc(COCC(F)(F)F)c1` gave PrP 5UTR inh -24, BJeLR lethal -2, Mtb hypoxia rep 8, RN4220 kill 3.7, Sa ugtP lethal 8, Autofluor counter 6847 and Mtb hypoxia rep growth 3.
For CC1(C)SC(=S)N(/N=C/c2ccccc2)C1N(O)C(=O)Nc1ccc([N+](=O)[O-])cc1 (centres undefined) the results were PrP 5UTR inh 1, BJeLR lethal 27 and Autofluor counter 4524.
Screening CCOc1ccc(C2N(c3ccc(OC)cc3)C(=O)C3CCCN32)cc1OC (centres undefined) returned PrP 5UTR inh -9, BJeLR lethal -8, RN4220 kill 0.5, Sa ugtP lethal 6 and Autofluor counter 6469.

Hits appear at their usual frequency; overall some 4% were active at least once.
